Source: PubChem BioAssay
FEN1 inh: blocks human flap endonuclease 1; Potency, µM (doses to about 114 µM), for inactives: top-dose activity change, negative = inhibition, actives largely listed as inhibitors; P39748; actives 0.35% (n = 390,000); Recombinant FEN1 flap cleavage, fluorescence, 15 min; AID 588795; note: nearly all actives have a fitted effect of over 65% in size
Target sequence (P39748 whole entry, looked up): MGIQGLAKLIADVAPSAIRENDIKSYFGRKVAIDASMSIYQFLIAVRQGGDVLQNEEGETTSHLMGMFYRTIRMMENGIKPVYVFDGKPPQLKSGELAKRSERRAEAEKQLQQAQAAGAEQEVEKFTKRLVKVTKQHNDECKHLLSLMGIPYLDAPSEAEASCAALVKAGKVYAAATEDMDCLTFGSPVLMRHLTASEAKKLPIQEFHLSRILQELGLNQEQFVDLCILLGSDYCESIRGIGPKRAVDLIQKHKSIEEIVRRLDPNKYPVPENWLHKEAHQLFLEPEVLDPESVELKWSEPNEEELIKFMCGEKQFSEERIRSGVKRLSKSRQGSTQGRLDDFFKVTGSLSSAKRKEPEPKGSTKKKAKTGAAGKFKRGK
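Concentration–response screening of FEN1 (10 nM): 15 min compound preincubation at room temperature, reaction started with 50 nM substrate and read at 0 and 15 min. Corrected, normalized data were fitted by a four-parameter Hill equation.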
TDP1 cell CPT: growth inhibition of DT40 Tdp1-/-;hTDP1 cells with camptothecin (screen for TDP1 inhibitors); Potency, µM (doses to about 46.2 µM), for the others: at the top dose activity change, negative = growth inhibition, hits mostly inhibitors; actives 12% (n = 420,000); chicken DT40 Tdp1-/-;hTDP1 cells + 20 nM CPT, ATP luminescence, 48 h; note: nearly all actives have a fitted effect of over 55% in size
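Cell growth measured by CellTiter-Glo luminescence after a minimum 48 h, 37 C compound exposure with 20 nM CPT in Tdp1-knockout DT40 cells stably expressing hTDP1, seeded 400/well; qHTS titration format.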
The depositor's hits bear a star; ? = inconclusive; . = not tested or not shown; & = joins results of further samples; [ ] = another dose, or the depositor's remark. Calls come from the whole dose curve; as a rule, active = well fitted curve in the direction sought with a large enough effect; inconclusive = small, poorly fitted or top-dose-only effect, or another doubt; inactive = no such curve, though single readings can be large; an effect the other way counts as inactive or inconclusive. % is set by controls: 0 for no effect and ±100 for the full control effect; potency is the fitted concentration of half-maximal effect. These rows are one share of the data, and most or all hits are left out here.

Order of values: FEN1 inh | TDP1 cell CPT
Cc1c(Cl)c([N+](=O)[O-])nn1CC(=O)N1CCCC1
→ 1% | -1%
O=C(NCc1ccccc1)NC1(C(=O)N2CCN(c3ncccn3)CC2)CCCCC1
→ -2% | ?
CCCCOCCCNC(=S)Nc1ccc(S(=O)(=O)N2CCOCC2)cc1
→ 2% | ?
COc1ccc(C(=O)NCC(=O)N/N=C/c2cn[nH]c2-c2ccccc2)cc1
→ -4% | 8%
COc1ccc(CC(=O)OCC(=O)NCc2ccc(C)cc2)cc1OC
→ -11% | 8%
COc1cccc(C(=O)NC2=NCCS2)c1
→ -12% | -1%
Cc1ccc(C(=O)OCCN(C)Cc2ccccc2)cc1
→ -5% | -20%
COc1ccc(CN(C(=O)Cc2coc3ccc(C)cc23)C2CCS(=O)(=O)C2)cc1 (stereo not given)
→ -16% | -6%
Cc1ccc(Cn2c(C)c3cnn(CC(=O)NC4CCCC4)c(=O)c3c2C)cc1
→ 21% | ?
COc1ccc(OC)c(/C=C/C(=O)OCC(=O)N2CCCC2)c1
→ -2% | -1%

Filtered by structure: the compounds so far containing nitrogen in an aromatic ring.
Order of values: FEN1 inh | TDP1 cell CPT
Cc1c(Cl)c([N+](=O)[O-])nn1CC(=O)N1CCCC1
→ 1% | -1%
O=C(NCc1ccccc1)NC1(C(=O)N2CCN(c3ncccn3)CC2)CCCCC1
→ -2% | ?
COc1ccc(C(=O)NCC(=O)N/N=C/c2cn[nH]c2-c2ccccc2)cc1
→ -4% | 8%
Cc1ccc(Cn2c(C)c3cnn(CC(=O)NC4CCCC4)c(=O)c3c2C)cc1
→ 21% | ?

Other results
Order of values: FEN1 inh | TDP1 cell CPT
CCN(CC)CCCN(Cc1cc2cc3c(cc2[nH]c1=O)OCO3)C(=O)Nc1ccccc1OC
→ -3% | ?
COc1ccc(NC(=O)c2cccc(S(=O)(=O)N3CCOCC3)c2)cn1
→ -13% | -6%
CCc1cccc(NS(=O)(=O)c2ccc3c(c2)CCC(=O)N3)c1
→ -19% | ?
C#CC(C)(CC)NC(=O)c1cc2cccc(CC=C)c2oc1=O (stereo not given)
→ 15% | -34%
O=C(NCc1ccc(F)cc1)c1cc2ccccc2o1
→ 8% | 6%
CCOC(=O)CCNC(=O)Nc1cc2nc(C)n(Cc3cccc(Cl)c3)c2nc1C
→ 11% | -1%
Cc1ccccc1NC(=O)c1cccc(N2C(=O)C3CCC(C)CC3C2=O)c1 (stereo not given)
→ 0% | -4%
COc1ccc(CNC(=O)C[C@H]2C[C@H](C(=O)N3CCCCC3)[C@@]3(C)c4[nH]c5cc(CCC(=O)N(C)C)ccc5c4CCN3C2=O)cc1OC
→ -2% | -13%
CCCCN(C(=O)c1ccc(NC2CC2)c([N+](=O)[O-])c1)c1c(N)n(CC(C)C)c(=O)[nH]c1=O
→ 22% | -23%
O=C(O)CSc1c(-c2ccccc2)c2cc(Cl)ccc2[nH]c1=O
→ -5% | -4%
CC(CC(=O)Nc1cc(S(=O)(=O)N2CCOCC2)ccc1OCC(F)(F)F)c1ccccc1 (stereo not given)
→ 11% | -18%
COC(=O)[C@H](Cc1ccccc1)NC(=O)NCc1ccc(C)cc1
→ 1% | 2%
COc1ccc(C)cc1S(=O)(=O)N1c2ccccc2CC1C (stereo not given)
→ -14% | -16%
COc1cc(O)c(C(CC(=O)N2CCCCC2)c2cc(OC)c(OC)c(OC)c2)c(OC)c1 (stereo not given)
→ 12%&2% | -18%
O=C(O)c1ccc(CNC(=O)c2ccccc2NC(=O)c2cccc([N+](=O)[O-])c2)cc1
→ 9% | 10%
COc1ccc(/C=C(\NC(=O)c2ccc(OC)cc2)C(=O)NC(CCSC)C(=O)O)cc1 (stereo not given)
→ -3% | -5%
O=C1CC(C(=O)O)S/C(=N\NC(=O)c2ccccc2)N1 (stereo not given)
→ -19% | -5%
CC1CCCN(CCCOc2ccccc2-c2ccccc2)C1 (stereo not given)
→ -5% | ?
O=C(CCNC(=O)c1ccc(Cl)cc1)NN1C(=O)NC2(CCCCC2)C1=O
→ 0% | 0%
O=C1CC(c2ccccc2)n2nc(NC(=O)c3cccs3)nc2N1 (stereo not given)
→ -17% | -21%
CCOC(=O)c1cc(OC(=O)c2cccc(F)c2)n(-c2ccccc2)n1
→ 17% | .
COc1ccc(-c2c(C)nn3c(N4CCC(C(=O)N5CCCCC5)CC4)cc(C)nc23)cc1OC
→ 17% | -7%
Cc1nn(-c2ccccc2)c(C)c1C1C(C#N)=C(N)Oc2n[nH]c(C)c21 (stereo not given)
→ 5% | 1%
COc1ccc(/C=N/n2cc(-c3ccc(OC)cc3)nc2N)cc1
→ 1% | ?
Cc1cc(C)c(C#N)c(SCC(=O)Nc2nnc(-c3ccccc3)s2)n1
→ -1% | -24%
Fc1ccc(C2=Nn3c(nnc3-c3ccco3)SC2)cc1
→ 7% | -5%
Cc1ccc(NC(=O)c2cc(N(C)C)ccc2[P+](=O)O)cc1
→ 8% | 4%
CCOc1ccc2nc3sc(C(=O)N4CCN(C)CC4)c(N)c3cc2c1
→ 0% | -22%
CC(=O)Nc1ccc(OCCC[n+]2cccc(C(=O)[O-])c2)cc1
→ -3% | 3%
CCNC(=O)CC1C(=O)N(c2ccc(C)cc2)C(=O)N1CCC(C)C (stereo not given)
→ 6%&6% | 0%&10%
CCOC(=O)CSC1=NC(=O)CS1
→ -7% | 10µM*
COc1ccc(NC(=O)CN2C(=O)NC(C)(C3CC3)C2=O)cc1S(=O)(=O)N1CCOCC1 (stereo not given)
→ 0% | 9%
COc1ccc(COc2ccccc2C(=O)NCc2ccccc2)cc1F
→ -11% | ?
O=C(Cc1ccccc1)Nc1cc([N+](=O)[O-])ccc1N1CCOCC1
→ 2% | -20%
CC(C)(Cc1ccccc1)/[N+]([O-])=C\c1ccccc1
→ -5% | ?
CN(C)CCCOC(=O)CCc1ccccc1
→ -12% | ?
Cc1cccc(N(C(=O)c2csnn2)C(C(=O)NC2CCCCC2)c2ccccn2)c1C (stereo not given)
→ 1% | 1%
Cc1onc(-c2ccccc2)c1C(=O)Nc1nncs1
→ 10% | 1%
O=C(CCSCCc1ccccn1)Nc1ccc(Cc2ccncc2)cc1
→ 1% | 0%
CCN1C(=NCC2CC2)N[C@@H](c2ccccc2)C(C(=O)OC)=C1C
→ 11% | ?

More records
canonical_smiles	FEN1 inh	TDP1 cell CPT
O=C(NC1CCCC1)c1cc2ccccc2o1	-8%	-15%
Cc1ccc(NC(=O)CSCC(=O)Nc2cc(Cl)ccc2N2CCN(C)CC2)cc1	-3%	?
CCC(=O)c1cc(F)ccc1OCC(=O)Nc1ccc2c(c1)OCCO2	22%	?
C=C(C)CN(CC)c1ccc(N2C(=O)CCCC2=O)cc1[N+](=O)[O-]	6%	-11%
O=C(Oc1ccccc1-c1csnn1)c1cccs1	1%	1%
O=C(Nc1ccc2oc(-c3ccncc3)nc2c1)c1ccccc1	6%	-9%
CC(C)CNC(=O)COC(=O)Cc1ccc(Cl)cc1	5%	7%
O=C(Nc1ccc(F)cc1)C1CCCN(C2=NS(=O)(=O)c3ccccc32)C1 (stereo not given)	-4%	-11%
c1ccc(Cc2nc3ccccc3o2)cc1	5%	-2%
Cc1ccc(NC(=O)/C=C/c2ccc([N+](=O)[O-])s2)cc1	-2%	3.3µM*
NS(=O)(=O)c1ccc(CNC(=O)c2ccc(Cl)cc2[N+](=O)[O-])cc1	-7%	-16%
Cc1cc(=O)oc2c1c(C)nn2-c1cccc(Cl)c1	16%	?
Cc1cc(C)c(C)c(S(=O)(=O)NC2CCCCC2)c1C	10%	-29%
COc1ccc(-c2csc(NC(=O)[C@H](C)N3C(=O)C4CC=CCC4C3=O)n2)cc1OC (stereo not given in full)	-11%	?
COc1ccc(S(=O)(=O)N2CCCCC2)cc1NC(=O)CN1CCN(C(C)=O)CC1	14%	?
COc1cccc2c1Oc1ncccc1N(C(=O)Nc1cccc(Cl)c1)C2	6%	?
COc1ccc(C2C(C(=O)Nc3ccccc3)=C(C)Nc3c(C(=O)Nc4ccccc4)cnn32)cc1 (stereo not given)	0%	?
N#C/C(=C\c1c(N2CCOCC2)nc2ccccn2c1=O)S(=O)(=O)c1ccccc1	-3%	-5%
CCC(=O)Nc1cccc(NC(=O)CSc2nnnn2C2CCCC2)c1	-15%	1%
COc1ccc(OC)c(Nc2c3c(nc4ccccc24)CCC3)c1	12%&2%	0.73µM*
CCOC(=O)C1CCCN(CC(=O)NC2=Nc3ccccc3N=C(C)C2c2ccccc2)C1 (stereo not given)	-2%	?
CC(C)CC(=O)NC(=S)Nc1ccc(Cl)cn1	-9%	?
Cc1ccc(C)c(-n2nnnc2SCC(=O)NCC2CCCO2)c1 (stereo not given)	4%	-9%
COc1ccc(-c2nnn(CC(=O)N(CCN3CCOCC3)C(C(=O)NC3CCCC3)c3ccco3)n2)cc1 (stereo not given)	21%	1%
N#Cc1c(-c2ccccc2)oc(=O)c2ccccc12	0%	-1%
COc1ccc(NC(=O)c2cc(S(=O)(=O)N3CCOCC3)ccc2OC)cc1	18%	1%
O=C(NCCC(=O)N1CCCCCCC1)c1ccc(Cl)cc1	7%	-21%
CC(=O)c1cccc(NC(=O)CCn2nc(C)c(S(=O)(=O)N(C)C)c2C)c1	-2%	?
O=C(NC1CCSC1=O)c1ccc(Cl)cc1 (stereo not given)	13%	-16%
O=C(Nc1cccc(C(=O)O)c1)/C(=C\c1ccc2c(c1)OCO2)NC(=O)c1ccc(Br)o1	-2%	0%
CC(=O)Nc1ccc(S(=O)(=O)NCC(=O)NNC(=O)COc2ccccc2Cl)cc1	3%	1%
O=C(NC1CCC(c2ccccc2)CC1)c1cccnc1 (stereo not given)	22%	-20%
Cc1cccc(N2C(=O)SC(N(CC(=O)O)c3cccc(C)c3)C2=O)c1 (stereo not given)	-13%	3%
O=[N+]([O-])c1ccc(N2CCC(=NOCc3ccc(Cl)cc3)CC2)cc1	-18%	21µM*
COc1ccc(NC(=O)C2Cc3ccccc3O/C2=N\O)cc1 (stereo not given)	16%	9%
COc1ccccc1C(=O)NNC(=O)c1ccc(F)cc1	-6%	1%
O=c1nc2c(-c3ccc(F)cc3Cl)n[nH]n2c2ccccc12	-11%	-26%
CCOc1cc(C(=O)N(C)CC(=O)Nc2cccc(F)c2)ccc1OCC(=O)N1CCCCC1	5%	-25%
O=C(Oc1c(CN2CCOCC2)cc(Cl)c2cccnc12)c1ccccc1Cl	-5%	2.3µM*
COc1cccc(/C=N/NC(=O)CCn2c3ccccc3c3ccccc32)c1	19%	?
COc1cc(C)ccc1OCc1cc(C(=O)N2CCC(c3ccc(F)cc3)C2)no1 (stereo not given)	-6%	?
CCC(C)c1ccc(OCC(=O)Nc2ccc(Cl)cn2)cc1 (stereo not given)	-1%	-17%
O=C(Nc1ccc(S(=O)(=O)Nc2ccccc2)cc1)C1CC1	3%	?
Cc1c(C)n2c(SCC(=O)N3CCN(c4ccccc4)CC3)nnc2[nH]c1=O	3%	-22%
Cc1sc2ncnc(NC(C)C(=O)O)c2c1C (stereo not given)	47%[activator]	-8%
CC(=O)NC1C(=O)N(CCc2ccccc2)c2ccc(Br)cc21 (stereo not given)	17%	?
COC(=O)Cc1ccc(NC(=S)N2CCN(c3cccc(O)c3)CC2)cc1	-5%	16µM*
Cc1cc(C(=O)NCCCN2CCOCC2)n(-c2ccccc2)n1	-3%	1%
Cc1ccc(C(=O)N/C(=C\c2cccs2)C(=O)NCCCN2CCOCC2)cc1	3%	21%
Cc1ccc(CNC(=O)CCCn2nc(C)c3c(C)n(-c4ccccc4)nc3c2=O)cc1	22%&15%	?
CCCC(=O)Nc1c(O)c2ccccc2[nH]c1=O	5%	-7%
Cc1ccc(CNC(=O)C(C)n2nc(C)c3sc4ccccc4c3c2=O)cc1 (stereo not given)	1%	?
CCn1c(=S)sc2c(=O)n(CC(=O)NC(C)CCc3ccccc3)c(C)nc21 (stereo not given)	22%	?
COc1ccc(C(=O)NC2CCSc3ccccc32)cc1S(=O)(=O)N1CCOCC1 (stereo not given)	1%	?
CCc1c(C)nc2ncnn2c1NCCc1ccc(OC)cc1	-9%	2.8µM*
CN(CC(=O)Nc1cccc(F)c1)C(=O)CN1C(=O)C2CCCCC2C1=O (stereo not given)	21%	-22%
COCCNc1nc(N)c([N+](=O)[O-])c(NC2CCCCC2)n1	-16%	?
CCCCCN(C(=O)NC(=O)Nc1ccccc1C)S(C)(=O)=O	-3%	-7%
CCCCN(C)C(=O)CC(NS(=O)(=O)c1ccc(NC(C)=O)cc1)C(C)C (stereo not given)	7%	9%

Three entries from above in a different format:
canonical_smiles: O=C(Cc1ccccc1)Nc1cc([N+](=O)[O-])ccc1N1CCOCC1
  FEN1 inh: 2%
  TDP1 cell CPT: -20%

canonical_smiles: CC(C)(Cc1ccccc1)/[N+]([O-])=C\c1ccccc1
  FEN1 inh: -5%
  TDP1 cell CPT: ?

canonical_smiles: CN(C)CCCOC(=O)CCc1ccccc1
  FEN1 inh: -12%
  TDP1 cell CPT: ?
